# Source: PubChem
# Sfp inh: qHTS Assay for Inhibitors of Bacillus subtilis Sfp phosphopantetheinyl transferase (PPTase) | 3.5% of 310,000 active | AID 1490, 2009 | Potency, µM, for inactives: max response, negative = inhibition, actives largely listed as inhibitors | 4'-phosphopantetheinyl transferase ffp (Bacillus subtilis), Q9F4F7 | Biochemical Sfp PPTase activity, qHTS; active = well fitted inhibition curve with a large enough effect; inconclusive = small, poorly fitted or top-dose-only effect, or another doubt; inactive = no such curve, though single readings can be large or run the other way;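 also: the enzyme is Sfp with the accession as filed and its product quenches rhodamine fluorescence; potency is read from the fitted curve at half-maximal effect; 0% = enzyme reaction without inhibitor and -100% = no enzyme wells; top concentration of the series not given in the record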
#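 With Hepes-Na pH 7.6 buffer containing 10 mM MgCl2, Sfp (15 nM) modified BHQ-2-YbbR (12.5 uM) using rhodamine-CoA (5 uM). Two reads 30 minutes apart at 525/598 nm yielded each well's rate.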
# D2 ag: Beta-Arrestin HTS for Positive Allosteric Modulators of the Human D2 Dopamine Receptor: Agonists. D(2) dopamine receptor (Homo sapiens), P14416. DiscoveRx PathHunter D2 beta-arrestin, luminescence, 90 min; 100% = 57 uM dopamine signal. activation, % (no concentration beside the values). 0.084% of 360,000 active; in the data active = activation above about 40%; inconclusive = about 15% to 40%; inactive = below about 15%; also: compound concentration not given in the record; the text of the record calls up to 30% inactive
# Target sequence (P14416 whole entry, looked up): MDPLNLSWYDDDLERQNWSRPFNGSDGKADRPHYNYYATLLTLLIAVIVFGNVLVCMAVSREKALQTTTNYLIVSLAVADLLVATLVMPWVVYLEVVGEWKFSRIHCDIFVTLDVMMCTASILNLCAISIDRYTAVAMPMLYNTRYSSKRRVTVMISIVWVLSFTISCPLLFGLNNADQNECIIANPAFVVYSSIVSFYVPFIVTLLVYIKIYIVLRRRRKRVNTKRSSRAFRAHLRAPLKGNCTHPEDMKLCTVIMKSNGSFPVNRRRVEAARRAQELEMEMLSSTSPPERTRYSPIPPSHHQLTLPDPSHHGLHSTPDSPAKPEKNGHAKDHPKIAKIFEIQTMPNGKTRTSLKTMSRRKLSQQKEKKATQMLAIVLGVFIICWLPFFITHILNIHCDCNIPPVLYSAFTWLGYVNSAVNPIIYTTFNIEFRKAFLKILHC
#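 DiscoveRx PathHunter D2 beta-arrestin cells (2,100/well) attached overnight, then compound-stimulated 90 min at 37 C in HBSS/10 mM HEPES/0.1% Tween-20 buffer; beta-galactosidase complementation read by luminescence after 1 h at ambient temperature. Dopamine 57 uM final (EC100) as control.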
# ClpP mod: qHTS Assay for Activators of ClpP. 1.9% of 340,000 active. purified B. subtilis ClpP, FRET peptide cleavage, 20 min. AID 651965, 2013. ATP-dependent Clp protease proteolytic subunit (Bacillus subtilis (strain 168)), P80244. Potency, µM (highest dose often 57.5 µM), inactives show at the highest dose activity change, negative = active; active = well fitted falling curve with a large enough effect; inconclusive = small, poorly fitted or top-dose-only effect; inactive = no such curve, though single readings can be large or run the other way; also: potency is read from the fitted curve at half-maximal effect; the source files actives as falling curves though it sought activators and does not explain the sign; nearly all actives have a fitted effect of over 65% in size; many hits overshoot -100%
# Target sequence (P80244 whole entry, looked up): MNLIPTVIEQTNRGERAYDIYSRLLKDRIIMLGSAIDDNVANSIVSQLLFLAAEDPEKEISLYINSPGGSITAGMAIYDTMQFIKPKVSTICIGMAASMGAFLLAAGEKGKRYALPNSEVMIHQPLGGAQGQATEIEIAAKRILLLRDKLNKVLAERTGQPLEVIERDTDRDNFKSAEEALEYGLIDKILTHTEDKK
#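 ClpP 10 microg/mL final, pH 8 Tris/KCl buffer with BSA, glycerol, Tween-20; compound pinned in; FRET-FV substrate; RT 20 min; Ex320/Em430; ΔFRET vs ADEP 5.8 microM, DMSO, no enzyme.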
# gsp antag: qHTS for Antagonists of gsp, the Etiologic Mutation Responsible for Fibrous Dysplasia/McCune-Albright Syndrome: qHTS; gsp-mutant cells, cAMP HTRF, 30 min; control for the full effect not named in the record; Potency, µM (top dose mostly 76.9 µM), inactives show at the top dose activity change, negative = inhibition, hits mostly inhibitors; 0.4% of 340,000 active; AID 624288, 2012; active = falling curve of any shape with a large fitted effect; inconclusive = falling curve, mostly with a smaller effect; inactive = flat or rising curve; cell line not stated here;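 also: intracellular cAMP measured with PDE inhibitor Ro 20-1724 present during compound exposure; potency is read from the fitted curve at half-maximal effect; % is scaled to controls: 0 for no effect and ±100 for the full control effect; nearly all actives have a fitted effect of over 65% in size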
#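 HTRF cAMP read-out (cAMP-d2 plus anti-cAMP antibody-K in lysis buffer, 30 min RT). Before lysis, cells are exposed to compounds with […] for 30 min at 37C in DPBS containing Ca/Mg, BSA and Tween 20.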
# gsp agonist: qHTS for Agonist of gsp, the Etiologic Mutation Responsible for Fibrous Dysplasia/McCune-Albright Syndrome: qHTS; 0.13% of 340,000 active; Potency, µM (series often up to 76.9 µM), for inactives: top-dose activation (cAMP increase), actives largely listed as activators; gsp mutant cells, cAMP HTRF, 30 min; control for the full effect not named in the record; active = well fitted activation curve with a large enough effect; inconclusive = small, poorly fitted or top-dose-only effect, or another doubt; inactive = no such curve, though single readings can be large or run the other way; cell line not stated here;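 also: phosphodiesterase inhibitor Ro 20-1724 added with compounds to block cAMP breakdown; potency is read from the fitted curve at half-maximal effect; nearly all actives have a fitted effect of over 60% in size; about a fifth of the inactives were tested at one dose only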
#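 Cells in DMEM/10% FBS with G418 were pretreated with compounds in DMSO plus […] (300 uM stock) for 30 min at 37C. cAMP was measured by HTRF (cAMP-d2 plus anti-cAMP antibody-K) after 30 min at room temperature.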
# Menin MLL FP FL: qHTS Assay for Inhibitors Targeting the Menin-MLL Interaction in MLL Related Leukemias: Competition With Fluorescein Labeled MLL-derived Peptide; FP activity change, % at 61.4 µM; Fluorescence polarization, fluorescein-MLL peptide displacement from menin; 290,000 tested, under 10 active; inconclusive = falling polarisation curve, or a change in total fluorescence; inactive = total fluorescence flat and polarisation flat or rising; no compound was filed as active; the % refers to the polarisation; negative = inhibition;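 also: % of control where 0% means no effect; inhibitors lower the polarisation; unlabelled MLL peptide was the positive control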
# PINK1 expr mod: A Quantitative High throughput Screen to Identify Chemical Modulators of PINK1 Expression | PINK1 immunofluorescence, high-content cytometry, 24 h | Potency, µM (highest dose often 76.6 µM), for the others: at the top dose activation (PINK1 increase), most hits filed as activators | 0.2% of 410,000 active; active = well fitted activation curve with a large enough effect; inconclusive = small, poorly fitted or top-dose-only effect; inactive = flat fitted curve, though single readings scatter; cell line not stated here;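 also: potency is read from the fitted curve at half-maximal effect; % of control where 0% means no effect; nearly all actives have a fitted effect of over 65% in size; a mitochondrial uncoupler was the plate control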
#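 Stable cell line treated 24 h with compounds at 5 concentrations (CCCP controls), then fixed and immunostained for PINK1 plus nuclear and cell stains; PINK1 immunofluorescence quantified by laser-scanning microplate cytometry.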
# * hit, by the source's call; u = inconclusive; x = not tested or not shown; [ ] = dose if it differs, or a comment. No enrichment for hits; about 5.1% have a hit in one of these screens.
SMILES,Sfp inh,D2 ag,ClpP mod,gsp antag,gsp agonist,Menin MLL FP FL,PINK1 expr mod
COc1ccc(NS(=O)(=O)c2cccc(C(=O)NC3CCC(O)CC3)c2)cc1 (stereo unspecified),5.0%,-4.1,-0.8%,-6.1%,-67.9%[inhibitor],2.2,4.1%
O=C(Nc1ccccc1)N1CCN(C2c3ccccc3-c3ccccc32)CC1,27.4%,-1.0,31.6µM*,-5.0%,-2.5%[15.4 µM],0.0,8.0%
COc1cc(C(=O)Nc2cc(S(=O)(=O)N3CCOCC3)ccc2N2CCOCC2)cc(OC)c1C,x,-4.7,-1.9%,-7.7%,u,x,-1.1%
Cc1[nH]n(-c2ccccc2)c(=O)c1/C=N/Nc1nncc(-c2ccccc2)n1,-26.2%,-4.5,-17.0%,-12.0%,-17.7%,2.4,-5.7%[38.3 µM]
CCC(C)NC(=O)c1c(C)cc(=O)oc1C (stereo unspecified),12.0%,-4.5,1.0%,-12.6%,1.4%,-1.1,3.0%[38.3 µM]
O=C(CN1CCc2ccccc21)NCc1ccc2c(c1)OCO2,-3.6%,-3.3,-0.2%,-3.4%,-10.6%,-1.8,-1.0%
Cc1sc(NC(=O)C2CCCCC2C(=O)O)c(C(N)=O)c1-c1ccccc1 (stereo unspecified),1.7%,-1.6,-15.3%,-17.2%,1.3%,1.4,1.5%
CCOC(=O)c1c(S(=O)(=O)NCC(=O)N2CCN(c3ccc(F)cc3)CC2)c(C)n(C)c1C,0.9%,6.8,-4.2%,-0.5%,-25.9%,-4.1,1.2%
Cc1c(C(=O)NC2=NCCS2)oc2ccccc12,-0.9%,-0.5,-3.6%,1.6%,-34.8%,4.5,-1.5%[38.3 µM]
COCCNC(=S)N(Cc1cccnc1)Cc1ccc(OC)c(OC)c1,6.0%,-2.9,-21.1%,2.0%,1.3%,0.7,1.1%
Cc1ccc(Cn2c(Sc3nccc(C)n3)nc3c2c(=O)[nH]c(=O)n3C)cc1,12.1%,-0.5,-3.2%,-6.4%,28.0%,-0.6,-1.0%
Cc1cc(C)cc(NC(=O)C2CCCN2C(=O)Oc2ccccc2)c1 (stereo unspecified),11.4%,-1.2,1.4%,11.8%,-55.4%[inhibitor],0.1,0.1%[38.3 µM]
N#Cc1cc2cc3ccccc3nc2n2c(=O)c3ccccc3nc12,2.2%,6.8,x,x,-9.5%[15.4 µM],u,u
Cc1cc(C)c(S(=O)(=O)Nc2nnc(C)s2)c(C)c1,2.7%,-1.8,-5.1%,2.5%,u,-4.5,-0.6%
CC(C)(C)NC(=O)Cn1cnc([N+](=O)[O-])n1,-5.0%,-1.4,-2.0%,2.2%,-39.4%[inhibitor],3.3,x
COc1cc(/C=C/C(=O)O)cc(S(=O)(=O)Nc2ccc3nc(C)sc3c2)c1OC,39.8µM*,-1.3,x,-10.3%,-5.8%[15.4 µM],2.7,-0.4%
CCC1C(O)=C(c2ccccn2)C(=N)N1c1ccccc1 (stereo unspecified),-12.1%,0.0,-11.5%,-10.1%,-5.0%,0.5,x
CCc1nnc(SCC(=O)Nc2ccc(C(C)=O)cc2)nc1CC,-2.0%,-1.1,-1.0%,0.8%,20.9%,-0.7,-1.4%
Cn1nnnc1NCc1ccc(Cl)c(Cl)c1,10.9%,-6.3,x,-8.9%,-0.6%[15.4 µM],-0.1,0.7%
Cn1c(SCC(=O)c2ccc3c(c2)Cc2ccccc2-3)nnc1-c1ccccc1,79.4µM*,-1.8,-9.7%,2.1%,13.3%,-0.2,2.2%
CCOc1ccc(N=Cc2ccc3ccccc3c2)cc1,11.0%,2.8,-1.5%,-0.1%,-3.8%[15.4 µM],0.4,0.6%
CCOc1cc(CNCCN2CCOCC2)ccc1OCc1ccccc1Cl,u,-18.4,x,12.4%,6.5%[15.4 µM],-1.9,3.7%
O=C(NC(=S)Nc1ccccc1CO)C1CCCCC1,x,2.2,x,-1.5%,-8.0%,x,0.6%
CC(=O)Nc1ccc(S(=O)(=O)NCCN2CCNC2=O)cc1Cl,21.4%,-3.2,-1.2%,6.0%,-8.4%,x,1.2%
COc1ccc(C(=O)n2nnc3ccccc32)cc1OC,-15.6%,-4.2,-3.4%,8.4%,-0.3%,3.6,3.7%
Cc1ccc(S(=O)(=O)N2CCC(C(=O)NC3CC3)CC2)cc1,13.8%,-2.7,x,6.1%,28.0%,0.9,0.2%
COC(=O)c1c(-c2cc(C)ccc2C)csc1NC(=O)C1CC=CCC1C(=O)O (stereo unspecified),14.4%,-3.9,0.5%,-7.2%,8.2%[15.4 µM],9.3,0.1%
COc1ccccc1OC(C)C(=O)O (stereo unspecified),6.8%,-3.0,0.2%,11.8%,-4.5%,1.4,-1.4%[38.3 µM]
CCOCCn1c(=NC(=O)/C=C/c2ccccc2Cl)sc2cc(NC(C)=O)ccc21,17.6%,1.2,13.7%,2.4%,6.8%,5.0,4.5%
CN(C)CCN(C(=O)c1ccc2ccccc2c1)c1nc2ccc(Br)cc2s1,9.2%,-3.7,1.3%,7.3%,-1.4%,x,0.0%
O=C(CCC1COc2ccccc2O1)NCc1ccccc1 (stereo unspecified),3.9%,-0.5,-0.4%,2.1%,u,7.1,-7.9%[38.3 µM]
O=S(=O)(/C=C/c1ccccc1)N1CCNCC1,11.4%,-2.2,x,4.9%,-3.1%,x,2.3%
O=C(Cc1ccccc1)N[C@@H]1c2ccccc2CC[C@@H]1OCc1ccccc1,x,-0.3,1.4%,-4.5%,x,x,7.1%
CC1=CN2C(=NC(=O)CC2(C)C(=O)N(CC(=O)NC2CCCC2)c2ccccc2C)C=C1 (stereo unspecified),3.3%,0.1,15.2%,11.5%,u,1.7,-0.2%
COc1ccc(NC(=O)N2CCCC3(CCN(C(=O)c4cc(C(F)(F)F)cc(C(F)(F)F)c4)CC3)C2)cc1,1.9%,x,x,x,x,-0.2,0.5%
COc1ccc(CC(=O)Nc2cccc(-c3nnc(-c4cccc(C)c4)o3)c2)cc1OC,-2.6%,2.4,0.1%,31.6µM*,15.9%,2.2,1.1%
C/C(=N\NC(=O)CCC(=O)Nc1ccccc1)c1cccs1,9.4%,-1.4,1.2%,3.0%,-1.7%,5.6,-0.6%
CN(C)S(=O)(=O)c1ccc(C(=O)N2CCC(c3nc4ccccc4o3)CC2)cc1,12.2%,-2.2,-0.2%,-1.8%,18.4%,3.9,-4.6%
O=C(O)C1CCN(C(=O)Cc2ccccc2)CC1,3.0%,-4.2,-1.2%,1.6%,13.4%[15.4 µM],3.2,1.1%
CCCCOc1ccc(N2CC(C(=O)NCc3ccco3)CC2=O)cc1 (stereo unspecified),6.9%,3.7,x,2.0%,1.1%,0.1,-1.7%
O=c1cc2c(nn1Cc1ccc(F)cc1)-c1ccccc1CC2,-11.1%,1.5,-25.6%,2.2%,-19.6%,0.2,-2.3%
Cc1ccc(CN2CCNC(=O)C2CC(=O)N(C)C2CCOCC2)cc1 (stereo unspecified),6.4%,-4.7,-5.4%,3.9%,-7.2%[15.4 µM],-4.6,1.8%
Cn1c(=O)c2c(nc(SCC(=O)N3c4ccccc4CCc4ccccc43)n2C)n(C)c1=O,-5.4%,-4.4,-0.6%,6.3%,0.9%,-0.6,10µM*
CCOC(=O)C1CCN(S(=O)(=O)c2cn(C)c(C)n2)CC1,29.6%,3.1,1.9%,5.4%,u,x,-0.1%
CC(NC(=O)c1ccccc1Br)c1ccc2c(c1)CCCC2 (stereo unspecified),-1.2%,1.7,0.1%,-14.0%,-2.8%,-0.6,-3.5%[38.3 µM]
CCCc1nc2ccc(C(=O)OC)cn2c1Cc1ccccc1C(F)(F)F,x,-9.6,-19.4%,x,x,x,3.6%
Cc1cccc2cn[nH]c12,5.1%,-4.5,-0.2%,11.3%,-29.5%,5.7,1.4%
CCOc1ccc(C2C(C(=O)c3ccc(C)o3)=C(O)C(=O)N2c2cc(C)on2)cc1OC (stereo unspecified),-24.1%,-6.5,-0.2%,7.8%,u,-1.9,-0.4%
COc1cccc(OC)c1C(=O)Nc1ccc(C(=O)NCc2ccccc2)cc1,26.6%,-0.8,5.1%,4.6%,-139.8%[inhibitor],3.0,12.2%
COc1cccc(NC(=S)Nc2cccnc2)c1,-27.2%,-3.4,-1.0%,4.8%,-89.5%[inhibitor],1.8,-0.3%
CNC(=O)Nc1ccc2snnc2c1,-4.1%,-3.1,5.0%,-5.4%,-0.3%,9.3,0.3%
O=C(CSc1nc2ccccc2o1)NCc1n[nH]c(=O)c2ccccc12,8.9%,-1.0,-4.0%,1.2%,13.3%,-0.6,2.3%
CCc1ccc(NC2=NC(C(=O)c3ccccc3)CC(=O)N2)cc1 (stereo unspecified),14.0%,-2.1,2.4%,-0.2%,u,0.3,-1.7%
CCn1c2ccccc2c2nnc(SCCN3CCOCC3)nc21,u,-1.9,-0.1%,-0.6%,1.4%,-4.4,0.5%
COc1ccc(-c2cc(NC(C)=O)c3ncc(-c4ccc(F)cc4)n3c2)cc1OC,x,4.1,-17.6%,x,x,x,1.1%
COc1cc(N/N=C(\C)c2ccc(O)c(C)c2)nc(-c2ccccc2)n1,8.9%,0.8,x,2.0%,-25.9%,1.8,-1.0%
Clc1ccc(C[n+]2cc(-c3ccc(Cl)cc3)n3c2CCC3)cc1,11.9%,-3.0,1.1%,7.2%,4.3%[15.4 µM],2.3,-1.2%
Cc1cccc(N2CCN(C(=O)C(Cc3ccccc3)n3cccc3)CC2)c1C (stereo unspecified),12.4%,-3.0,-2.7%,-12.1%,-28.2%,2.9,7.8%
Cc1ccc(NC(=S)N2CCN(c3ccccn3)CC2)cc1C,10.8%,-2.0,-4.3%,-7.2%,8.5%,5.5,1.1%
